Source: PubChem BioAssay
Calb FLC – C. albicans growth modulation with fluconazole. C. albicans CaCi-2 (fluconazole-resistant clinical isolate) + fluconazole, Alamar Blue growth, 48 h. growth inhibition, % (test concentration not listed). hit rate 0.57% among 300,000;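 active = most replicates above 75%; inconclusive = exactly half above 75%; inactive = most below 75%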;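 note: all wells also contain fluconazole at 8 µg/ml as a sub-toxic cotreatment; 0% = median of DMSO wells and 100% = median of geldanamycin control wells; wells of about 8 µL received 7.5 nL stock; the first replicate is given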
RanGTP-Imp inh – disruptors of Ran-importin-beta complex formation – biochemical, FRET, CFP-Ran, YFP-importin-beta, homogeneous, primary screen; cell-free CFP-Ran/YFP-importin-beta FRET ratio; inhibition, % (concentration not given with the values); hit rate 1.1% among 300,000; AID 2216;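 active = most replicates above 15%; inconclusive = exactly half above 15%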;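 note: 0% = DMSO wells and 100% = Ran loaded with GDP instead of GTP; wells of about 40 µL received 100 nL stock; the first replicate is given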
Bfl-1 A1 inh – inhibitors of the anti-apoptotic protein A1, read as caspase activation; MEF A1-2A-BIM cells, Caspase-Glo 3/7 luminescence, 3 h; percent of clofoctol response, vehicle zero; caspase activation, % (concentration not given with the values); hit rate 0.066% among 330,000;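 active = over half of replicate activation scores above 10%, or exactly half above 10 with the replicate mean above 10; inconclusive = replicate mean below 10 yet half the replicates above 10; inactive = over half of replicates below 10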;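 note: wells of about 30 µL received 50 nL stock; many hits fall short of the cut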
Beta apoptosis – blocks beta cell apoptosis. INS-1E cytokine-induced death, ATP luminescence, 48 h; percent of positive-control rescue, neutral wells zero. protection from apoptosis, % (concentration not given with the values). hit rate 0.8% among 300,000. AID 435005;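 active = all replicates at 75% or more, or half of them and the mean; inconclusive = half reach 75% but not the mean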;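 note: 0% = cytokine-treated negative control wells and 100% = positive control rescue; higher means more ATP so stronger rescue from cytokine killing; wells of about 40 µL received 100 nL stock; the first replicate is given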
UCH37 DUB inh – human UCH37 deubiquitinating enzyme inhibition. AID 588478. Q9Y5K5. inhibition, % (concentration not given with the values). hit rate 0.33% among 330,000. purified proteasome/UCH37, Ub-AMC cleavage fluorescence;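 active = mean of two replicates above 20%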;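 note: 0% = compound-free wells with enzyme and 100% = wells lacking proteasome; stock transfer was 100 nL into about 20 µL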
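Material: Human UCH37 enzyme supplied as purified proteasome complex | Schedule: 30 min preincubation with enzyme, 25 min cleavage at room temperature | Detection: AMC fluorescence 355/460 nm | Measure: % inhibition of Ub-AMC cleavage fluorescence | Controls: Wells without proteasome as full block, compound-free enzyme plus substrate as uninhibited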
LANA-H2B inh – blocks KSHV LANA binding to histone H2A/H2B; Q9QR71; cell-free LANA-H2A/H2B peptide, fluorescence polarization; inhibition, % (test concentration not listed); hit rate 0.6% among 320,000; in the data active = inhibition mostly above about 10%, no sharp cut-off; inactive = mostly below about 6.7%;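 note: stock transfer was 7.5 nL into about 10 µL; 0% = median of vehicle wells and 100% = median of positive control wells; one replicate is shown; the record names a cut of 25% in any replicate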
Target sequence (Q9QR71 whole entry, looked up): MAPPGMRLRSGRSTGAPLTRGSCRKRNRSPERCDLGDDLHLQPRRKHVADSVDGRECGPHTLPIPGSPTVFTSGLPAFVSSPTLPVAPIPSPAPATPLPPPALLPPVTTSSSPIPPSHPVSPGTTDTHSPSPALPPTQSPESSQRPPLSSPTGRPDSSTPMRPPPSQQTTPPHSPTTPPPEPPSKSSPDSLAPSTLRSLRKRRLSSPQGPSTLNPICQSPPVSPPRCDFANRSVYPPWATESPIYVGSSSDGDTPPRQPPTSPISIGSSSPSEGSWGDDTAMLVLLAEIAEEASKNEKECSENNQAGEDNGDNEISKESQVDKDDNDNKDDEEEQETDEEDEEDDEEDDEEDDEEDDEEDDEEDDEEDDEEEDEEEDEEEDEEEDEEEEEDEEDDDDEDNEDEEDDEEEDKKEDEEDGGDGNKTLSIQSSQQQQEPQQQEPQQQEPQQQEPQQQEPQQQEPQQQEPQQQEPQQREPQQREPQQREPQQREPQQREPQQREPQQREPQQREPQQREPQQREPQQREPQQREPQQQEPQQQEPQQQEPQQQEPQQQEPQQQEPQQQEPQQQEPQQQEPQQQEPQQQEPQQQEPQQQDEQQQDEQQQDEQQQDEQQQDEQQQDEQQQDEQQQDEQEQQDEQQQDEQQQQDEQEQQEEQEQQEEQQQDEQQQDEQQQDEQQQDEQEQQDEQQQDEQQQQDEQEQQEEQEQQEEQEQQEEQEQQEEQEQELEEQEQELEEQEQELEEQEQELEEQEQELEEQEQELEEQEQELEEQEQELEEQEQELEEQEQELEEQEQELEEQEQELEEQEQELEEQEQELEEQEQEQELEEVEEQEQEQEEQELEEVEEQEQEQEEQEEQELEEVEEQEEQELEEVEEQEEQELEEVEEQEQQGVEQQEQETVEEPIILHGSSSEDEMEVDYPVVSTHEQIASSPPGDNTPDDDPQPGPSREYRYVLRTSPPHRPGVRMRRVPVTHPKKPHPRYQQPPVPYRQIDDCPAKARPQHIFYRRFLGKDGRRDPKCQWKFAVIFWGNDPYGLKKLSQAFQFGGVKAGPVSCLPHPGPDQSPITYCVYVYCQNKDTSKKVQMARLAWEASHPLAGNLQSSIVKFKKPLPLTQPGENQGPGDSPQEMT
Beta2AR agonist – activates human beta-2 adrenergic receptor causing internalization. response, % (test concentration not listed). Am2.2-beta2AR cells, FAP receptor internalization, flow cytometry; reference of the scale not given here. hit rate 0.43% among 340,000. P07550;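 active = response above a set limit, near 3 SD of response in nonfluorescent compounds, cut at about 42% in these data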;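 note: stock transfer was 100 nL into about 11 µL; a reference agonist was the positive control; negative values mostly stem from fluorescent compounds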
T cruzi repl – T. cruzi replication inhibition; T. cruzi beta-gal in NIH3T3, luminescence, 90 h; AID 1885; inhibition, % (no concentration beside the values); hit rate 1.4% among 300,000;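 active = mean inhibition across valid replicates above about 55%, limit read from the data; inconclusive = mean below that limit but half or more replicates reach it; inactive = mean below it, under half of replicates reach it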;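 note: signal also drops with host cell toxicity which is not excluded here; 0% = plate median of DMSO wells and 100% = zero luminescence signal; higher percent means less beta-gal luminescence so fewer parasites; stock transfer was 50 nL into about 50 µL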
An asterisk follows results filed as active; i = inactive; ? = inconclusive; . = no result given.

SMILES	Calb FLC	RanGTP-Imp inh	Bfl-1 A1 inh	Beta apoptosis	UCH37 DUB inh	LANA-H2B inh	Beta2AR agonist	T cruzi repl
COc1ccc(-n2nc(C(=O)NCC(=O)Nc3cc(OC)ccc3OC)c3ccccc3c2=O)cc1	2	?	-0.5	15	-5.0	-1.5	9	-16
O=Cc1cc2cc3c(cc2nc1Cl)OCCO3	-4	-1.5	0.1	-6	5.0	0.2	.	-9
O=C(O)C1CN(c2nc(Cl)ccc2[N+](=O)[O-])C1	-3	?	-1.3	-2	7.1	-5.1	5	3
O=C(CC(C(=O)O)C1CCCO1)NCc1ccccc1 (stereo unspecified)	-1	1.4	0.7	-10	2.0	0.4	-5	3
C=CC[C@@H](CC(=O)N[C@@H](CO)Cc1ccccc1)C(=O)N[C@@H](COC(=O)[C@@H](CC=C)Cc1ccc(F)cc1)Cc1c[nH]c2ccccc12	.	.	1.9	0	2.9	.	2	.
CCCCC(=O)Nc1ccc(C(=O)NNC(=S)NC(=O)c2ccco2)cc1	1	1.2	-0.3	-1	7.9	4.5	-10	-1
O=C(CSc1nnc(CNC(=O)c2cccs2)o1)Nc1ccc(Br)cc1	0	-1.6	-0.6	-5	2.8	-0.7	-10	7
Cc1nn(C)c(C)c1/C=C/C(=O)c1cccs1	-4	?	1.5	-9	-52	4.3	-6	5
Cc1ccsc1C(=O)OCC(=O)N1CCN(c2ccccc2)CC1	.	.	-0.2	1	1.4	-0.5	-2	.
CCOc1ccc(C(c2nnnn2C(C)(C)C)N2CCN(C(=O)c3ccco3)CC2)cc1 (stereo unspecified)	-8	?	0.3	-6	0.6	13	4	3
Cc1ccsc1C1Nc2ccccc2-c2nc3ccccc3n21 (stereo unspecified)	-2	-6.2	-1.6	4	i	-4.8	-1	18
CCOc1ccccc1NC(=O)CNC(=O)N1CC(=O)Nc2ccccc21	-10	0.4	0.7	-3	3.9	3.4	-1	-1
Cc1c(C)c2ccc(OC(C)C(=O)N3CC[C@@]4(O)CCCC[C@H]4C3)cc2oc1=O (stereo partly specified)	-3	0.5	-0.3	2	-126	-0.3	-13	15
COc1ccc(OC)c(-c2csc(NC(=O)Cc3ccc(OC)c(OC)c3)n2)c1	8	-0.4	1.6	1	5.2	3.7	12	-2
Cc1sc(NC(=O)c2ccccc2F)c(CN2CCCCC2)c1C	3	-0.4	-0.7	2	-0.9	0.9	2	15
c1ccc(-c2nnc(CN3CCN(C(c4ccccc4)c4ccccc4)CC3)o2)cc1	-4	-0.6	0.1	-7	3.1	6.0	1	23
C=CCn1c(NCc2ccco2)nc2ccccc21	3	-2.4	0.8	.	4.4	-0.2	2	-7
Cc1ccc(C)c(-n2cc(CNCCCn3cccn3)c(-c3ccccc3)n2)c1	12	-1.6	0.0	-7	3.7	2.0	0	11
CC(c1ccc(F)cc1)n1c(Cn2ncc3ccccc3c2=O)n[nH]c1=S (stereo unspecified)	28	3.6	-1.2	1	0.1	4.3	0	-8
COc1ccccc1CC1CC(=O)N(c2ccccc2)C1=O (stereo unspecified)	0	1.0	0.7	-3	2.9	-3.8	6	-6
Cc1nnc(SC(C)C(=O)Nc2ccc(Cl)cn2)n1Cc1ccccc1 (stereo unspecified)	17	4.8	-0.2	-9	3.2	-2.5	1	-14
CCOC(=O)Cc1csc(NC(=O)CSc2nnc(-c3ccc(OC)cc3)n2C)n1	-14	-0.1	0.4	-3	5.0	-5.0	3	70*
Cn1c(=O)c(=O)n(C)c2cc([N+](=O)[O-])c([N+](=O)[O-])cc21	-18	0.0	0.3	5	8.7	5.2	13	17
O=c1cc(N2CCN(c3ccccc3)CC2)[nH]c(=O)n1Cc1ccc(F)cc1	4	0.7	0.3	-5	2.8	2.0	-5	-7
CC(=O)Nc1ccc(-c2nc3c(C)cccc3[nH]2)cc1	3	1.2	-4.9	-5	-18	-2.4	-1	-25

Some entries already given, limited to UCH37 DUB inh.
SMILES	UCH37 DUB inh
C=CCn1c(NCc2ccco2)nc2ccccc21	4.4
Cc1ccc(C)c(-n2cc(CNCCCn3cccn3)c(-c3ccccc3)n2)c1	3.7

Continuation.
SMILES	Calb FLC	RanGTP-Imp inh	Bfl-1 A1 inh	Beta apoptosis	UCH37 DUB inh	LANA-H2B inh	Beta2AR agonist	T cruzi repl
COC(=O)c1cc(OC)c(OC)cc1NC(=S)Nc1cccc(Cl)c1	1	1.0	-0.1	-4	5.0	2.4	2	-5
O=C(N/N=C\c1cccs1)c1ccccc1-n1cccc1	-2	-0.1	-0.1	-2	.	1.2	-3	0
COc1ccc(OC)c(NC(=O)CNC(=O)c2cccs2)c1	-4	11	1.8	0	4.2	-1.3	0	8
O=C1C2ON(c3ccccc3)C(c3ccccc3F)C2C(=O)N1c1ccccc1 (stereo unspecified)	-1	?	0.3	-5	4.1	-0.1	-3	-12
O=C(O)/C=C\c1cccc(-n2cnnn2)c1	-1	-1.4	-0.4	-3	3.6	-1.4	-8	-9
CC1CCC(NC(=O)c2cc3ccccc3cc2O)CC1 (stereo unspecified)	.	.	-2.3	12	1.2	3.5	2	.
N/C(=N\OC(=O)Nc1cccc(C(F)(F)F)c1)c1ccno1	-1	-3.3	1.1	4	6.7	2.2	4	15
CN(C)C(CNC(=O)CN1C(=O)NC2(CCCC2)C1=O)c1ccccc1 (stereo unspecified)	.	.	0.0	-7	-0.3	-5.4	0	.
Cc1ccc(C(=O)N2CCN(C)CC2)cc1[N+](=O)[O-]	0	3.9	0.1	-2	2.8	0.4	-5	-10
O=C(NCCc1c[nH]c2ccccc12)OCCCCOC(=O)NCCc1c[nH]c2ccccc12	-6	-4.0	0.2	1	1.5	-4.6	16	49
c1ccc2c(c1)[nH]c1nc(SCCN3CCOCC3)nnc12	0	1.0	-0.3	0	7.4	3.2	-5	-4
CCc1nccn1CCC(=O)N1CCCC(N2CCN(c3ccccc3C)CC2)C1 (stereo unspecified)	2	0.9	-0.8	1	0.2	-0.9	6	-13

In the list so far, these contain two or more sulfur atoms:
SMILES	Calb FLC	RanGTP-Imp inh	Bfl-1 A1 inh	Beta apoptosis	UCH37 DUB inh	LANA-H2B inh	Beta2AR agonist	T cruzi repl
O=C(CSc1nnc(CNC(=O)c2cccs2)o1)Nc1ccc(Br)cc1	0	-1.6	-0.6	-5	2.8	-0.7	-10	7
CCOC(=O)Cc1csc(NC(=O)CSc2nnc(-c3ccc(OC)cc3)n2C)n1	-14	-0.1	0.4	-3	5.0	-5.0	3	70*

One compound at a time, from the list above. Order of screens: Calb FLC | RanGTP-Imp inh | Bfl-1 A1 inh | Beta apoptosis | UCH37 DUB inh | LANA-H2B inh | Beta2AR agonist | T cruzi repl
Listed for COc1ccc(OC)c(NC(=O)CNC(=O)c2cccs2)c1 : -4 | 11 | 1.8 | 0 | 4.2 | -1.3 | 0 | 8
Listed for Cc1ccc(C(=O)N2CCN(C)CC2)cc1[N+](=O)[O-] : 0 | 3.9 | 0.1 | -2 | 2.8 | 0.4 | -5 | -10
Listed for CN(C)C(CNC(=O)CN1C(=O)NC2(CCCC2)C1=O)c1ccccc1 (stereo unspecified) : . | . | 0.0 | -7 | -0.3 | -5.4 | 0 | .
